Cruzain Triton – blocks cruzain activity in presence of Triton detergent; P25779; purified cruzain, Z-FR-AMC fluorescence, 0.01% Triton; Potency, µM, inactives show max response, negative = inhibition, most hits filed as inhibitors; hit rate 0.43% among 200,000; AID 1478;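 note: plate controls were neutral wells for no effect and buffer without enzyme for full effect; nearly all actives have a fitted effect of over 40% in size; top concentration of the series not given in the record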
Target sequence (P25779 123-467 limits assumed): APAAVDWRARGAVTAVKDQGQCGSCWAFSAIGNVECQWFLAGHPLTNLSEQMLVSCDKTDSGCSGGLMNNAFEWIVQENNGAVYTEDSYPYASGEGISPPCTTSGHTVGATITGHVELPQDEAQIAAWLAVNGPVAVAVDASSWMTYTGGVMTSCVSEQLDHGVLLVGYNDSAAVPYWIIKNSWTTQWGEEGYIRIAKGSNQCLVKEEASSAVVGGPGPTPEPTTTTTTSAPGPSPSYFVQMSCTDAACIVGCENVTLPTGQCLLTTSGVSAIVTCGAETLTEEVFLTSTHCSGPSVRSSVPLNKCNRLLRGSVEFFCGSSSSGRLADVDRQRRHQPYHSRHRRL
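In this qHTS format, compounds are incubated with 1.5 nM cruzain for 15 min at room temperature before 2 uM Z-FR-AMC is added. Release of AMC is followed at 360/450 nm, and progress is taken as the 60 s fluorescence difference.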
StopGo reporter – lowers the luciferase signal of an FMDV 2A StopGo reporter. human cells with a luciferase reporter of 2A StopGo recoding; control for the full effect not named in the record. Potency, µM (series often up to 57.9 µM), without a hit: at the highest dose signal change, negative = less light. hit rate 1.2% among 410,000; active = well fitted falling curve with a large enough effect; inconclusive = small, poorly fitted or top-dose-only effect; inactive = no such curve, though single readings can be large or run the other way; tested in HEK293T cells; note: nearly all actives have a fitted effect of over 45% in size; luciferase light after 4 h
Cruzain inh noDet – cruzain (T. cruzi) inhibition without detergent. hit rate 2.3% among 200,000. purified cruzain, Z-FR-AMC fluorescence, no detergent. Potency, µM, without a hit: max response, negative = inhibition, most hits filed as inhibitors. AID 1476;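 note: plate controls were enzyme without inhibitor for no effect and buffer without enzyme for full effect; nearly all actives have a fitted effect of over 40% in size; top concentration of the series not given in the record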
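Purified cruzain at 1.5 nM, pre-incubated 15 min with compound at room temperature in 100 mM sodium acetate pH 5.5, 5 mM DTT, 0.00005% Triton X-100. Reaction started with 2 uM Z-FR-AMC; AMC fluorescence increase over 60 s gives rate.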
* marks the source's active call; other numbers are inactive results; ? = inconclusive; & = joins results of further samples; [ ] = remark or other dose. Unless noted, calls come from the whole dose curve; as a rule, active = well fitted curve in the direction sought with a large enough effect; inconclusive = small, poorly fitted or top-dose-only effect, or another doubt; inactive = no such curve, though single readings can be large; an effect the other way counts as inactive or inconclusive. Unless noted, % is set by controls: 0 for no effect and ±100 for the full control effect; potency is the fitted concentration of half-maximal effect.

SMILES	Cruzain Triton	StopGo reporter	Cruzain inh noDet
CNc1nc(-c2ccc(C(=O)N(C)C)cc2)nc2ccccc12	1.0%	43%[activator]	-10%
CC(C)NC(=O)N1CCCC2(CCN(C(=O)Oc3ccccc3)CC2)C1	-1.4%	12%	7%
OC[C@H]1NC[C@H](O)[C@@H](O)[C@H]1O	1.1%	-23%	1%
O=c1c(-c2cc(F)cc(F)c2)nc2cnc(N3CCOCC3)nc2n1-c1ccccc1	1.3%	-11%	-3%
CN(C)C(=O)c1ccc(-c2ccc3ncnc(NC4CCNCC4)c3c2)cc1	4.0%	3%	-5%
COc1ccc2[nH]cc(CCNc3nc(-c4ccc(C(=O)N(C)C)cc4)nc4ccccc34)c2c1	-4.3%	?	-4%
CC1CC[C@@]23CCC4(C)[C@@]5(C)CCC6C(C)(C)C(O)CC[C@@]6(C)C5C=C[C@@]4(OC2=O)C3C1C (stereo not given in full)	4.2%	0%	0%
COc1c(CC=C(C)C)c2c(c3oc(=O)c(-c4ccc(O)cc4)c(O)c13)C=CC(C)(C)O2	-2.6%	-12%	-6%
COc1cccc(Nc2ncc3nc(-c4cc(F)cc(F)c4)c(=O)n(C4CC4)c3n2)c1	8.9%	-13%	12%
Clc1ccc(Cl)cc1	5.5%	1%	2%
CCOC(=O)C(CCc1ccccc1)NC1CCc2ccccc2N(CC(=O)O)C1=O (stereo not given)	-2.9%	5%	20%
CN(C)Cc1ccccc1-c1nc(N(C)C)c2ccccc2n1	-1.9%	-8%	3%
O=C(c1cnccn1)N1CCC2(CCN(Cc3ccccc3)CC2)CC1	1.1%	-4%	-1%
c1nc(N2CCOCC2)c2cc(-c3ccoc3)ccc2n1	-6.0%	1%	-11%
COc1ccc(NC(=O)N2CCC3(CC2)CCN(C(=O)Oc2ccccc2)CC3)cc1	-0.9%	-33%	11%
CN(C)c1ncc2nc(-c3ccccc3)c(=O)n(-c3ccccc3)c2n1	3.0%	1%	-2%
O=C(Oc1ccccc1)N1CCC2(CCN(Cc3ccccc3)CC2)CC1	3.4%	-11%	1%
N#Cc1cccc(-c2ccc3ncnc(NC4CCNCC4)c3c2)c1	-3.8%	-12%	-10%
COc1cccc(-c2cc(NCc3cccs3)ncn2)c1	-1.2%	38%[activator]	27%
CC(C)(C)NC[C@@H](O)COc1cccc2[nH]c(C#N)cc12	1.6%	-5%	-2%
COc1cccc(-c2cncnc2Nc2ccc(F)cc2)c1	7.1%	-10%	4%
O=C(Oc1ccccc1)N1CCC2(CC1)CCN(C(c1ccccc1)c1ccccc1)CC2	-3.4%	-8%	-1%
COCC(=O)N1CCC2(CC1)CCN(C(=O)NC(C)C)CC2	3.4%	-6%	-12%
COc1cccc(Nc2ncc3nc(-c4ccccc4)c(=O)n(C[C@H]4CCCO4)c3n2)c1	-1.3%	?	10%
CN(C)c1ncc2nc(-c3ccc(Cl)cc3)c(=O)n(-c3ccccc3)c2n1	-3.3%	-3%	-13%
CCCCCCCCCCCCC(C(=O)O)C(C)C(=O)O (stereo not given)	-5.0%	10%	?
N#Cc1cccc(NC(=O)N2CCC3(CC2)CCN(C(=O)c2csnn2)CC3)c1	2.7%	1%	-2%
Cc1o[nH]c(=O)c1CC[C@H](N)C(=O)O	0.8%	-10%	7%
O=C(c1ccco1)N1CCC2(CCCN(C(c3ccccc3)c3ccccc3)C2)CC1	-1.1%	-27%	-4%
O=C(c1cnccn1)N1CCC2(CCCN(C(c3ccccc3)c3ccccc3)C2)CC1	-3.5%	-23%	18%
COc1ccccc1N1CCN(CCCCNC(=O)c2ccc(-c3ccc(C(C)=O)cc3)cc2)CC1	0.4%	-19%	1%
Cc1nc2cnc(N3CCN(C)CC3)nc2n(CCC#N)c1=O	-17%	-6%	?
O=C(O)c1cc(=O)c2cccc(O)c2[nH]1	-3.2%&2.0%	-12%&23%	-8%&-3%
COc1ccc(C(=O)N2CCC3(CCCN(C)C3)CC2)cc1	4.2%	-2%	-3%
COC(=O)CCC(C)C1CCC2C3CC[C@H]4CC(O)CC[C@@]4(C)C3CC(O)[C@]12C (stereo not given in full)	-9.1%	-6%	?
CN(C)c1ccc(-c2nc(N3CCNCC3)c3ccccc3n2)cc1	-1.5%	17%	-8%

Single records, as listed above. Values in the order: Cruzain Triton	StopGo reporter	Cruzain inh noDet
COc1ccccc1N1CCN(CCCCNC(=O)c2ccc(-c3ccc(C(C)=O)cc3)cc2)CC1 is entered as 0.4%	-19%	1%
CCCCCCCCCCCCC(C(=O)O)C(C)C(=O)O (stereo not given) is entered as -5.0%	10%	?
O=C(c1ccco1)N1CCC2(CCCN(C(c3ccccc3)c3ccccc3)C2)CC1 is entered as -1.1%	-27%	-4%
Cc1o[nH]c(=O)c1CC[C@H](N)C(=O)O is entered as 0.8%	-10%	7%
COc1ccc(C(=O)N2CCC3(CCCN(C)C3)CC2)cc1 is entered as 4.2%	-2%	-3%

Next section
SMILES	Cruzain Triton	StopGo reporter	Cruzain inh noDet
CC1CC[C@@]2(OC1)OC1CC3C4CC=C5CC(O)CC[C@@]5(C)C4CC[C@]3(C)C1C2C (stereo not given in full)	4.7%	2%	0%
Cc1nc2cnc(N3CCNCC3)nc2n(Cc2ccc(F)cc2)c1=O	1.5%	-11%	9%
C=C1C2CC[C@@]3(C)C(c4ccoc4)OC(=O)C[C@@]13OC1CC(=O)C(C)(C)C(C(O)C(=O)OC)[C@]12C (stereo not given in full)	0.8%	-19%	15%
O=C(c1ccncc1)N1CCC2(CC1)CN(Cc1ccccc1)C2	3.5%	-4%	17%
N#Cc1cccc(NC(=O)N2CCCC3(CCN(C(=O)c4cccc(F)c4)CC3)C2)c1	-1.7%	-10%	-2%
COc1ncc2nc(-c3cn(C)c4ccccc34)c(=O)n(CCc3ccccc3)c2n1	1.3%	-7%	-12%
COCCn1c(=O)c(-c2ccc(OC)cc2)nc2cnc(Oc3cccc(Cl)c3)nc21	1.3%	7%	-3%
COc1ccc2[nH]cc(CCNc3nc(-c4ccccc4OC)nc4ccccc34)c2c1	1.4%	-20%	-10%
O=C(Nc1cccc(F)c1)N1CC2(CCN(C(=O)Oc3ccccc3)CC2)C1	1.7%	-11%	1%
CC(C)NC[C@H](O)c1ccc(N)c(C#N)c1	-2.2%	5%	11%
Cc1nc2cnc(N(C)C)nc2n(C2CC2)c1=O	-0.7%	-16%	-3%
COCCn1c(=O)c(-c2ccccc2)nc2cnc(OCc3ccccc3)nc21	-8.3%	-27%	0%
CNc1cc(-c2c(C)noc2C)ncn1	5.0%	-1%	23%
COc1ccc(-c2nc3cnc(OC)nc3n(-c3ccccc3)c2=O)cc1	2.9%	-1%	6%
Fc1ccc(Nc2nc(-c3ccoc3)nc3ccccc23)cc1	-9.8%	-21%	25µM*
COc1ccc(C(=O)N2CCC3(CCCN(Cc4ccccc4)C3)CC2)cc1	-2.8%	1%	1%
COc1ccc([N+](=O)[O-])c2c1CCN2C(=O)CC[C@H](N)C(=O)O	-0.5%	-24%	-2%
CN1CCN(c2nc(-c3ccccc3C(F)(F)F)nc3ccccc23)CC1	-1.4%	3%	4%
COC(=O)c1cc(=O)c(O)c2c(O)c(O)ccc2c1	-22%	-10%	-13%
C=C1C[C@@]23CC4C5[C@@]6(C)C[C@H](O)C[C@@]57C2[C@H](O)[C@@H]1[C@H](O)[C@H]3[C@H]7N4C6	-0.1%	-12%	-1%
Cc1noc(C)c1C(=O)N1CCC[C@@]2(CCN(C(c3ccccc3)c3ccccc3)C2)C1	3.0%	-16%	-6%
Cn1c(=O)c(CCc2ccccc2)nc2cnc(Nc3ccccc3)nc21	-0.1%	21%	-13%
CN(Cc1ccco1)c1cc(-c2ccccc2Cl)ncn1	-3.7%	26%	11%
CCCN(CCC)[C@@H]1CCc2c(OC)cccc2[C@@H]1C	-4.4%	-2%&-12%	-3%
O=C(CCCCCN1C(=O)c2cccc3cccc(c23)C1=O)NO	-4.4%	-5%	-10%
COc1ncc2nc(-c3ccc(F)cc3)c(=O)n(CCC#N)c2n1	-11%	-8%	6%
CN1CCN(c2ncncc2-c2ccoc2)CC1	12%	-25%	6%
O=C(c1ccco1)N1CCC2(CC1)CCN(c1ccc(-c3ccccc3)cc1)CC2	1.9%	-6%	-5%
COc1ccc(CNc2ccnc(-c3ccccc3CN(C)C)n2)c(OC)c1	-0.4%	-20%	2%
COc1ccccc1CCn1c(=O)c(-c2cccc(Cl)c2)nc2cncnc21	0.6%	-1%	-7%
CS(=O)(=O)Nc1cccc(-c2ccc3ncnc(NCCN4CCOCC4)c3c2)c1	1.2%	2%	-4%
O=C(c1csnn1)N1CCC[C@@]2(CCN(c3ccccc3)C2)C1	-4.1%	-18%	-3%
Clc1cccc(SC2CCNCC2)n1	0.6%	-6%	-1%
CCCCC[C@H](O)/C=C/C=C\CCCCCCCC(=O)O	2.8%	-14%[0.463 µM]	-2%
COc1ccccc1CNc1ncnc2ccc(-c3cccc(NS(C)(=O)=O)c3)cc12	-1.8%	-19%	-9%
COCCn1c(=O)c(-c2ccc(Cl)cc2)nc2cnc(OC)nc21	-4.4%	-14%	16%
CO/N=C(/C(=O)NC1C(=O)N2C(C(=O)O)=C(CSc3nc(=O)c(O)nn3C)CSC12)c1csc(N)n1 (stereo not given)	-4.9%&-11%	-5%	1%&-13%
c1cn(-c2ncnc3ccc(-c4ccoc4)cc23)cn1	2.0%	28µM*	-10%
CN1CCN(c2ncc3nc(-c4ccc(Cl)cc4)c(=O)n(C)c3n2)CC1	-8.2%	6%	?
N=c1ccn2c(n1)OCC1C2O[C@@H](O)[C@H]1O (stereo not given in full)	5.6%	-10%	-5%
Nc1nc2c(nc(Br)n2[C@@H]2O[C@H]3COP(=O)(O)O[C@H]3[C@@H]2O)c(=O)[nH]1	-3.2%	-4%	7%
CC(=O)NCCNc1nc(-c2cccc(C#N)c2)nc2ccccc12	0.0%	-4%	-1%
O=C(c1csnn1)N1CCC2(CC1)CN(c1ccncc1)C2	-17%	-10%	-24%
Cc1nc2cnc(Nc3ccccc3)nc2n(CCc2ccccc2)c1=O	7.2%	-6%	-4%
O=C(c1cnccn1)N1CCC2(CC1)CCN(C(c1ccccc1)c1ccccc1)CC2	5.6%	-13%	-1%
COc1cc(O)cc(OC)c1OC	3.8%	7%	-3%
N#Cc1cccc(NC(=O)N2CC[C@@]3(CCCN(C(=O)c4cnccn4)C3)C2)c1	5.8%	-8%	1%
O=C(NC(=O)c1ccccc1Cl)Nc1ccc(OC(F)(F)F)cc1	2.9%	4%	-9%

An excerpt from above in order of SMILES length, low to high.
SMILES	Cruzain Triton	StopGo reporter	Cruzain inh noDet
Clc1cccc(SC2CCNCC2)n1	0.6%	-6%	-1%
COCCn1c(=O)c(-c2ccc(Cl)cc2)nc2cnc(OC)nc21	-4.4%	-14%	16%
COc1ccc(CNc2ccnc(-c3ccccc3CN(C)C)n2)c(OC)c1	-0.4%	-20%	2%

The list goes on:
SMILES	Cruzain Triton	StopGo reporter	Cruzain inh noDet
COc1ccnc(CS(=O)c2nc3ccc(OC(F)F)cc3[nH]2)c1OC (stereo not given)	?	-1%	-27%
COc1ncc2nc(-c3cccs3)c(=O)n(Cc3cccs3)c2n1	1.4%	-3%	-3%
CN(Cc1ccco1)c1ncncc1-c1cccc(NS(C)(=O)=O)c1	4.6%	-17%	16%
COc1ccccc1-c1ccc2ncnc(NCc3cnc(C)cn3)c2c1	-3.5%	?	2%
CC(=O)N1CCC[C@@]2(CCN(c3ncccn3)C2)C1	0.7%	-1%	-6%
N#Cc1cccc(NC(=O)N2CCCC3(CCN(C(=O)c4ccco4)CC3)C2)c1	2.3%	-9%	-4%
CC(C)CN1CC[C@@]2(CCCN(C(=O)c3ccco3)C2)C1	-3.7%	-4%	-1%
CN1CCN(c2nc(-c3cccc(NS(C)(=O)=O)c3)nc3ccccc23)CC1	-0.3%	-11%	7%
Cc1nc2cncnc2n(Cc2ccccc2Cl)c1=O	2.1%	-42%	?
Cc1noc(C)c1-c1nccc(NCc2cccs2)n1	4.3%	0%	-2%
N#Cc1cccc(NC(=O)N2CCCC3(CCN(C(=O)c4cc(C(F)(F)F)cc(C(F)(F)F)c4)CC3)C2)c1	-5.8%	-10%	?
COc1ccc(CNc2ncnc3ccc(-c4ccc(C(=O)N(C)C)cc4)cc23)c(OC)c1	0.6%	4%	5%
CC1(COc2ccc(CC3SC(=O)NC3=O)cc2)CCCCC1 (stereo not given)	2.0%	-6%[6.7 µM]	-7%
CN(C)c1ncc2ncc(=O)n(C3CC3)c2n1	-5.6%	-13%	-20%
Cc1cnc(CNc2nc(-c3ccoc3)nc3ccccc23)cn1	-5.3%	-5%	-2%
c1cc2cc(c1)C[n+]1ccc(c3ccccc31)NCc1ccc(cc1)CNc1cc[n+](c3ccccc13)C2	4.6%	-4%	?
COc1ccc2c(c1)OCC(Cc1ccc(OC)c(OC(C)=O)c1)C2=O (stereo not given)	3.2%	6%	1%
NC(=O)NCC(N)C(=O)O (stereo not given)	4.4%	4%	-2%

A portion of the library; the hit share may differ from the screen's.
